High-throughput results (PubChem BioAssay)
HPGD inh: HPGD (human) dehydrogenase inhibition; 150,000 compounds, 4.3% hits; AID 894; Potency, µM, inactives show at the highest dose activity change, negative = inhibition, actives largely listed as inhibitors; purified HPGD, NADH fluorescence kinetic, PGE2 substrate; active = well fitted inhibition curve with a large enough effect (not every such curve was filed as active); inconclusive = small, poorly fitted or top-dose-only effect, or another doubt; inactive = no such curve, though single readings can be large or run the other way;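 note: top concentration of the series not given in the record; plate controls included wells without enzyme; inactives centre near -10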
Target sequence (P15428 whole entry, looked up): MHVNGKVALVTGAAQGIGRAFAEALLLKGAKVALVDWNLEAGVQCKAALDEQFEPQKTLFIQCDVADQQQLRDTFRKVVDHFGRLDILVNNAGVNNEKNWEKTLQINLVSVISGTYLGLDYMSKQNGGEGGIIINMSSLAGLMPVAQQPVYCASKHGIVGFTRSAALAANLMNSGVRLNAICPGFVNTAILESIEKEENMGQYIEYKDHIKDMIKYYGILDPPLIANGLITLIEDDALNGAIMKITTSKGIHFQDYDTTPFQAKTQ
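NADH formation kinetics: reaction with 30 uM PGE2 and 1 mM NAD+ (final), 20 nM enzyme, Tris-HCl pH 8 with Tween 20, after 15 min compound preincubation at room temperature. Fluorescence change, last versus first of five reads.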
* hit, by the source's call; ? = inconclusive. % is set by controls: 0 for no effect and ±100 for the full control effect; potency is the fitted concentration of half-maximal effect. These rows are one share of the data; the hit share may differ from the screen's.

Start of the data: the first 2 entries as a preview:
canonical_smiles | HPGD inh
O=C(C1=NNC2C(=O)N(c3ccccc3)C(=O)C12)c1nc(Cl)ccc1Cl (stereo not given) | -3%
COc1ccc(NC(=S)N2CCc3ccccc3C2)cc1 | ?

Main list (from the top)
canonical_smiles | HPGD inh
O=C(C1=NNC2C(=O)N(c3ccccc3)C(=O)C12)c1nc(Cl)ccc1Cl (stereo not given) | -3%
COc1ccc(NC(=S)N2CCc3ccccc3C2)cc1 | ?
O=C(c1ccc([N+](=O)[O-])cc1)N(C1=NCCCCS1)c1ccccc1 | -11%
CC(C)c1cc(C(N)=O)c(NC(=O)c2cccc(COc3ccc(Cl)cc3)c2)s1 | ?
CCOC(=O)N1CCC(NS(=O)(=O)c2cc(Br)cnc2N)CC1 | -8%
Cc1ccc(NC(=O)CN(C)S(=O)(=O)c2cccc3nsnc23)cc1 | -15%
C/C(Cl)=C/CCl | -7%
O=C(Cc1ccccc1)N1CCC(c2nc(-c3ccc(F)cc3)no2)CC1 | -12%
COc1ccc(C)cc1S(=O)(=O)N1CCC(C)CC1 | -8%
CCOC(=O)N1CCN(C(=O)c2c(-c3ccccc3)noc2C)CC1 | 1%
Cc1ccc(C2CC(=O)Oc3cc4c(cc32)OCO4)cc1 (stereo not given) | -20%
CC(C)(C#N)NC(=O)c1ccco1 | 2%
O=C(Nc1nnc(-c2ccc(Cl)cc2)o1)c1cccc(N2C(=O)CCC2=O)c1 | -3%
Cc1ccc(S(=O)(=O)NCC(=O)N(c2ccccc2)C(C(=O)NCc2ccccc2)c2ccco2)cc1 (stereo not given) | -2%
CSc1nc2sc(-c3ccccc3)cc2c(=O)n1N | -17%
Cc1cc(C)cc(N=C2NC(=O)/C(=C/c3cccs3)S2)c1 | -13%
O=C(c1cccc(-c2ccc(O)cc2)c1)N1CCOCC1 | 16µM*
O=C(NC1CCCCC1)c1noc2c1CCCCC2 | -21%
CCOc1ccc(Cc2nc(-c3nonc3N)no2)cc1OCC | -12%
Cn1c(CCNC(=O)OC(C)(C)C)n[nH]c1=S | -7%
CC(C)NC(=O)Cn1c(=O)cnc2ccccc21 | -15%
O=C(Nc1cc(C(F)(F)F)ccc1N1CCOCC1)c1ccc[n+]([O-])c1 | -15%
CCOc1cc(-c2noc(-c3cccnc3)n2)ccc1OC | -1%
Cc1occc1-c1nnc(SCC(=O)Nc2ccc3c(c2)OCO3)n1CC1CCCO1 (stereo not given) | -2%
CCCS(=O)(=O)N1CCCC(C(=O)NCCN2CCC(Cc3ccccc3)CC2)C1 (stereo not given) | -6%

Rewritten with the structure last: 4 of the compounds above
HPGD inh	Compound
-6%	CCCS(=O)(=O)N1CCCC(C(=O)NCCN2CCC(Cc3ccccc3)CC2)C1 (stereo not given)
-7%	Cn1c(CCNC(=O)OC(C)(C)C)n[nH]c1=S
-3%	O=C(Nc1nnc(-c2ccc(Cl)cc2)o1)c1cccc(N2C(=O)CCC2=O)c1
1%	CCOC(=O)N1CCN(C(=O)c2c(-c3ccccc3)noc2C)CC1

(continued)
canonical_smiles | HPGD inh
Cc1ccc(C2NC(=O)NC3=C2CCc2ccccc23)cc1 (stereo not given) | ?
CCCn1nnnc1-c1cc(Cl)cc(Cl)c1 | -3%
O=C1Nc2ccccc2C(=O)C1(Cl)Cc1ccccc1 (stereo not given) | 7.1µM*
CCCCOc1ccc(S(=O)(=O)Nc2ccc(NC(C)=O)cc2)cc1 | -11%
CC1(C)Cc2c(sc3nc(-c4ccccc4)n(N)c(=O)c23)CO1 | -16%
COC(=O)CSc1nnc(-c2ccc(S(=O)(=O)N3CCCC3)cc2)n1C | -15%
O=C1SCCc2c1n(Cc1ccccc1)c1ccccc21 | ?
C=CCn1c(O)c(C=Nc2ccc(Cc3ccncc3)cc2)c(=O)[nH]c1=S | -7%
Cc1ccc(N2CCCn3c2nc2c3c(=O)n(CCN3CCOCC3)c(=O)n2C)cc1 | -16%
CN(C)C(=O)c1cc(Br)ccc1Cl | -9%
Cc1ccn(-c2cccc(-n3ccc(C)n3)n2)n1 | -19%
CN1C(=O)CC2(CC(=O)N(Cc3ccccc3)C2)C1=O (stereo not given) | -12%
Cc1cccc(NC(=O)c2ccc(COc3ccc(Cl)cc3Cl)o2)n1 | -26%
Cc1ccc(NC(=O)N2CCC(NC(=O)c3ccccc3C)CC2)cc1 | -3%
CC(=O)OC1CC[C@]2(C)C(CC(OC(C)=O)[C@]3(C)C2CC[C@@]2(C)C(c4ccoc4)OC(=O)C4O[C@]432)C1(C)C (stereo not given in full) | -6%
CC(C)(C)NC(=O)[C@H]1CN(Cc2cccnc2)CCN1C[C@@H](O)C[C@@H](Cc1ccccc1)C(=O)N[C@H]1c2ccccc2C[C@H]1O | -21%
Cc1nnc(N2CCN(Cc3ccccc3)CC2)[nH]c1=O | -3%
c1cc2c(cc1Oc1nc(N3CCOCC3)nc(N3CCOCC3)n1)OCO2 | -5%
Cc1nc2ccccc2n1C(=O)N1CCOCC1 | -14%
Cc1ccc(CNC(=O)COC(=O)c2ccc(Cl)c(N)c2)cc1 | ?
C[C@]1(C(=O)O)C=C[C@@H](Cc2ccccc2)N1C(=O)c1ccccc1 | -7%
CC(=NC1CCCCC1)C1=C(O)c2ccccc2C1=O | -13%
Cc1onc(-c2ccccc2)c1C(=O)Nc1c(C)n(C)n(-c2ccccc2)c1=O | -11%
O=C(Nc1ccccc1)c1ccc(-c2ccccc2C(F)(F)F)o1 | -10%
CCN[C@@H]1C[C@H](C)S(=O)(=O)c2sc(S(N)(=O)=O)cc21 | -3%
CCc1ccc(/C=N/NC(=O)c2cc(C)on2)s1 | -18%
CN1CCN(CC(=O)C23CC4CC(CC(C4)C2)C3)CC1 | -16%
C(=N\N=C\c1cccnc1)/c1cccnc1 | -3%
Cc1nc2cc(S(=O)(=O)N(C)C)ccc2n1-c1ccccc1 | -4%
CCC1CCCCN1C(=O)CN1C(=O)CSC1=O (stereo not given) | -9%
Cc1ccc(S(=O)(=O)/N=C(\Nc2cc(C)on2)c2ccc(Cl)cc2)cc1 | -4%
Cc1ccccc1N/C(SCc1cccc(Br)c1)=C(/C#N)C(N)=O | 0%
O=[N+]([O-])c1ccccc1/C=N/Nc1nnc(-c2ccccc2)c(-c2ccccc2)n1 | 0%
COC(=O)CNC(=O)c1c(-c2ccccc2Cl)noc1C | 3%
CCC1=NN2C(=N)/C(=C/c3c(C)nn(-c4ccccc4)c3Cl)C(=O)N=C2S1 | -19%
CCC(C)NC(=O)CCS(=O)(=O)c1ccc(Br)s1 (stereo not given) | -19%
COc1nc(-c2ccncc2)nc2ccccc12 | -10%
COc1ccc2cc(C#N)c(SCC(=O)NNC(=O)Cc3ccccc3)nc2c1 | ?
CCOc1cc(/C=C2\N=C(SCC)SC2=O)cc([N+](=O)[O-])c1OC(C)=O | 13µM*
Cc1cc(C)nc(SCNC(=O)c2ccc(F)cc2)n1 | 14µM*
CCCOc1ccc(/C=c2\sc3nc(-c4ccco4)nn3c2=O)cc1OCC | -17%
Cc1ccc(-n2c(O)c(C=Nc3cc(C)on3)c3ccccc3c2=O)c(C)c1 | -5%
CCc1nnc2n1N=C(c1ccc(OC)cc1)CS2 | -4%
CCn1c(SCC(N)=O)nnc1-c1cc2c(C)nn(-c3ccccc3)c2s1 | -25%
CCCC(=O)n1nc(-c2ccc(OC)cc2)nc1N | -10%
CCCNC(=O)Cn1cnc2sc(C(=O)N3CCN(c4ccc(F)cc4)CC3)c(C)c2c1=O | -11%
CS(=O)(=O)CCC(C(=O)OCC(=O)c1ccc(Cl)cc1)N1C(=O)c2ccccc2C1=O (stereo not given) | -9%
CC(C)Cn1c(SCc2nc3ccccc3c(=O)[nH]2)nc2ccccc2c1=O | -6%
C=CCN1C=C2C(=O)C(C)(OC(=O)c3ccco3)C(=O)C(C=C)=C2C=C1C1CC1 (stereo not given) | 4%
CCCc1nc2ccccc2c(C(=O)OCC(=O)Nc2cccc(S(=O)(=O)N3CCOCC3)c2)c1CC | -20%

Next part.
canonical_smiles | HPGD inh
O=c1c2c(nc3cc(-c4ccc(Cl)cc4)[nH]n13)CCS2 | -9%
Cc1cccn2c(=O)c(/C=C(\C#N)C(=O)NCc3ccco3)c(N3CCCCC3)nc12 | 32µM*
O=C(COC(=O)c1cccc(C(=O)OCC(=O)NC2CCCCC2)n1)NC1CCCCC1 | -10%
Cc1ccc(C(=O)N/C(=C\c2cccs2)C(=O)NC2CCCCC2)cc1 | -13%
Clc1ccc(-c2nnc3sc(-c4ccccn4)nn23)cc1 | -8%
OCCN1CCN(c2nc(NCc3ccco3)c3ccccc3n2)CC1 | -18%
CC(C)C[C@H](NC(=O)N1CCCCCC1)C(=O)N[C@H](Cc1cn(C)c2ccccc12)C(=O)N[C@H](Cc1ccccn1)C(=O)O | -2%
Cc1sc2ncn3cnnc3c2c1C | -15%
COC(=O)C1=C(N)Oc2cc(C)n(Cc3cccnc3)c(=O)c2C1c1ccc(OC)c(OC)c1 (stereo not given) | -21%
O=C(CCc1ccccc1)N/N=C/c1cc(Br)ccc1O | -19%
CC(=O)N1CCN2C(=O)C1CCCC(=O)c1cc(C)ccc12 (stereo not given) | -19%
CC(=O)c1cccc(NC=C2C(=O)OC3(CCCCC3)OC2=O)c1 | -26%
COc1ccc(/C=N/Nc2nc(-c3cccc(S(=O)(=O)N4CCCC4)c3)cs2)c(OC)c1 | ?
O=C(c1cn(CC(=O)N2CCCCC2)c2ccccc12)C1CC1 | -3%
C[C@]12CCC3c4ccc(O)cc4CCC3[C@@H]1CCC2=O (stereo not given in full) | -2%
Cc1ccc(N(C(C)C(=O)N2CCCCC2)S(C)(=O)=O)cc1C (stereo not given) | -9%
O=C(COC(=O)c1ncc(Cl)c(Cl)c1Cl)Nc1ccccc1OC(F)F | -10%
O=C(c1nn2c(C(F)(F)F)cc(-c3cccs3)nc2c1Br)N1CCCc2ccccc21 | -11%
Cc1cccc(Cl)c1NC[C@H](O)CN1CCN(C)CC1 | -4%
C[C@H](CCC(=O)NN)[C@@H]1CC[C@@H]2[C@H]3CC[C@H]4C[C@@H](O)CC[C@@]4(C)[C@@H]3CC[C@]21C | -9%
O=C(Nc1ncc(Cc2cccc(Cl)c2)s1)c1ccc([N+](=O)[O-])cc1 | -12%
CCN(CC)C(=O)CSc1nc2ncc(Cl)cc2[nH]1 | 13µM*
CCn1c(C)c(C(C)=O)c(N2CCN(c3ccccn3)CC2)nc1=S | -5%
COc1cc(CC(=O)OCC(=O)c2ccc3c(c2)OCCO3)cc(OC)c1OC | -19%
CCc1cc(/C(Cc2ccc3ccccc3n2)=N\O)c(O)cc1O | -23%
Cn1c(=O)c2c(ncn2CC(=O)Nc2nc(-c3ccccc3Cl)cs2)n(C)c1=O | -6%
O=C(CSc1ncnc2c1oc1ccccc12)N1CCc2ccccc2C1 | 4µM*
COc1ccc(CSc2nnnn2Cc2ccccc2)cc1OC | -20%
CS(=O)(=O)N1CCN(c2ccccc2NC(=O)Cc2ccc(Cl)cc2)CC1 | -6%
O=C1/C(=C\c2ccco2)SC(=S)N1c1ccccc1 | -19%
CC(C)c1nc2ccccn2c1NC1CCCCC1 | -21%
O=C(CN1C(=O)c2ccccc2C1=O)NCCc1c[nH]c2ccc(Cl)cc12 | -15%
Cn1c(SCC2CCCCC2)nnc1-c1ccncc1 | -15%
O=C(Oc1cccnc1)c1cc2ccccc2oc1=O | ?
Nc1cc2nsnc2cc1Br | -16%
O=C(CSc1nc(O)cc(=O)n1-c1ccccc1)NCc1ccccc1 | 3%
CCOc1ccc(-n2c(SCc3ccc([N+](=O)[O-])cc3)nnc2-c2ccc(OC)cc2)cc1 | -18%
Cc1ccc(N2C(=O)NC(NC(=O)C3CC3)(C(F)(F)F)C2=O)cc1 (stereo not given) | -13%
c1ccc(C(c2ccccc2)N2CC3(CCNCC3)C2)cc1 | 0%
CN(C(=O)COC(=O)c1c2c(nc3ccccc13)/C(=C/c1cccc([N+](=O)[O-])c1)CCC2)C1CCS(=O)(=O)C1 (stereo not given) | -14%
CCN1C(=O)/C(=C/c2cccs2)SC1=Nc1ccc(OC)cc1 | -3%
Cc1c(Cl)cccc1NC(=O)CCC(=O)NNC(=O)c1ccccc1 | -1%
Cc1cccc(N2C(=O)CS/C2=N\NC(=O)c2ccc(Br)cc2)c1C | -3%
O=S(=O)(NCC1CCCO1)c1cnc(Cl)c(Br)c1 (stereo not given) | -10%
O=C(NCc1ccccc1Cl)C1CCC(CNc2c(N3CCCCC3)c(=O)c2=O)CC1 (stereo not given) | 13µM*
CC(C)CCN(C(=O)Nc1ccccc1)C(C)c1cccs1 (stereo not given) | -14%
CCOC(=O)c1cnc(-n2nc(C)cc2C)nc1NNc1cc(-c2ccccc2)nc(C)n1 | -2%
COc1ccc(C(=O)NCCCCCC(=O)N/N=C/c2ccco2)cc1OC | ?
Cc1ccc(S(=O)(=O)n2cnc3ccccc32)c(C)c1 | -17%
CCOc1ccc2nc(NC(=O)/C=C/c3ccc4c(c3)OCO4)sc2c1 | -8%

(further entries)
canonical_smiles | HPGD inh
COc1ccc(N/C=C(\C#N)c2ccc(OCCCF)cc2)cc1 | -15%
COc1ccc(C2CC(c3ccc(Cl)c(Cl)c3)Nc3nc(N)nn32)cc1 (stereo not given) | -27%
Clc1cc2c(c(CSC3=NCN(CC4CC4)CN3)c1)OCOC2 | -5%
CCc1nc(SCC(=O)Nc2cccc(C(F)(F)F)c2)c2c(=O)n(C)c(=O)n(C)c2n1 | -2%
